Assay outcomes deposited in PubChem by several laboratories.
LYP phosphatase: LYP phosphatase inhibitors, primary screen, biochemical, DiFMUP fluorescence, recombinant catalytic domain, 10 µM (AID 606); recombinant LYP catalytic domain, DiFMUP fluorescence; higher % means a stronger effect; 52,000 tested, under 10 active; inhibition, % at 10 µM, or IC50 in µM where a hit was titrated;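 active = IC50 under 40 µM in the dose-response test; inactive = IC50 of 40 µM or more, or never dose-tested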
DPM-DC inhibit: S. pneumoniae DPM-DC inhibition; purified DPM-DC, PK/LDH coupled NADH fluorescence; calls only at 10 µM; actives 0.49% (n = 65,000);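 active = the 320 compounds with the highest percent inhibition in the single-dose primary screen, excluding strongly autofluorescent ones, cut at about 32% in these data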;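 also: kinetic rate of NADH fluorescence loss reporting ADP formed by the decarboxylase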
HT1080 viability: HT1080 cell viability loss – fluorescence readout (AID 620); HT1080 viability, fluorescence; higher % means a stronger effect; cytotoxicity, % at 10 µM, or EC50 in µM where a hit was titrated; actives 0.42% (n = 87,000); in the data active = cytotoxicity above about 50%;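 also: cells exposed to compound overnight then 4 h with Alamar Blue; 0% = vehicle DMSO and 100% = killing control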
PMK inhibit: inhibitors of Streptococcus pneumoniae phosphomevalonate kinase; purified PMK, PK/LDH-coupled NADH absorbance 340 nm; actives 0.49% (n = 65,000); inhibition, % at 10 µM;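 active = top-ranked compounds by inhibition in the single 10 µM screen, taking a fixed number of the strongest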;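 also: 0% = full reaction with DMSO carrier and 100% = background rate without enzyme reaction; no value below 0 was filed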
Bfl-1 inhibitors: displacement of Bid BH3 peptide from Bfl-1 – biochemical, fluorescence polarization, FITC-Bid, mouse, primary screen (AID 432). actives 0.02% (n = 64,000). FITC-Bid BH3 peptide fluorescence polarization displacement; higher % means a stronger effect. displacement, % at 20 µM, or IC50 in µM where a hit was titrated; in the data active = a potency from the dose series; inactive = the rest, 99 in 100 with displacement below about 15%; also: strong numbers were not always called active
PMK inhibit pilot replicates: recorded beside PMK inhibit, whose call it bears; inhibition, %; measured here: pilot screen replicates
DPM-DC inhibit pilot screen %: second read-out of DPM-DC inhibit, no call of its own (marks repeat the call); inhibition, %; measured here: pilot screen trials
An asterisk follows results filed as active; i = inactive; x = no result given. This is a subset; count on the stated rates, not on these rows.

Screens in order – LYP phosphatase, DPM-DC inhibit, DPM-DC inhibit pilot screen %, HT1080 viability, PMK inhibit, PMK inhibit pilot replicates, Bfl-1 inhibitors
CC1(C)CC(=O)c2c(Cc3ccccc3)n[nH]c2C1
 : 5.8%, i, x, 1.6%, 0.0, x, -3.6%
CCOc1cccc(OCCCCN2CCOCC2)c1
 : 12.4%, i, x, x, 6.0, x, -7.3%
O=C(COc1ccc2ccccc2c1Br)Nc1ncn[nH]1
 : 17.0%, i, x, -3.2%, 3.0, x, -5.3%
Nc1nc(CSc2n[nH]c(-c3ccccc3)n2)nc(Nc2ccccc2)n1
 : 5.5%, i, x, 0.5%, 12.0, x, -6.6%
CCOc1cc(CN2CCSCC2)ccc1O
 : x, i, x, 1.8%, 15.0, x, -2.8%
Fc1ccc(C(c2ccc(F)cc2)N2CCN(C/C=C/c3ccccc3)CC2)cc1
 : 28.0%, i, 5.0, -15.1%, 6.0, 5.0, -1.5%
COc1cc([C@@H]2c3cc4c(cc3[C@H](O)[C@H]3COC(=O)[C@H]23)OCO4)cc(OC)c1OC
 : 5.0%, i, 0.0, 68.5%*, 3.0, 5.0, -1.5%
CCN(CC)CCOc1ccc(Br)cc1
 : 7.4%, i, x, x, 8.0, x, -1.1%
O=C(CCCCCN1C(=O)CCC1=O)Nc1ncn[nH]1
 : -11.9%, i, x, 2.8%, 10.0, x, -6.6%
CN1CCN(CCCN2c3ccccc3Sc3ccc(C(F)(F)F)cc32)CC1
 : 18.5%, i, 0.0, 7.7%, 3.0, 8.0, -5.7%
CCCSc1n[nH]c(NC(C)=O)n1
 : -1.8%, i, x, 2.4%, 7.0, x, 2.3%
CC(C)(C)c1ccc(-c2nnc3sc(-c4ccccn4)nn23)cc1
 : -8.3%, i, x, -5.8%, 3.0, x, 5.0%
COc1ccccc1C(=O)NCCc1nc2ccccc2n1C
 : -1.3%, i, 0.0, 9.7%, 0.0, 1.5, -5.5%

A different layout for some results above.
| molecule | LYP phosphatase | DPM-DC inhibit | DPM-DC inhibit pilot screen % | HT1080 viability | PMK inhibit | PMK inhibit pilot replicates | Bfl-1 inhibitors |
| --- | --- | --- | --- | --- | --- | --- | --- |
| CC1(C)CC(=O)c2c(Cc3ccccc3)n[nH]c2C1 | 5.8% | i | x | 1.6% | 0.0 | x | -3.6% |
| CCOc1cccc(OCCCCN2CCOCC2)c1 | 12.4% | i | x | x | 6.0 | x | -7.3% |
| O=C(COc1ccc2ccccc2c1Br)Nc1ncn[nH]1 | 17.0% | i | x | -3.2% | 3.0 | x | -5.3% |
| Nc1nc(CSc2n[nH]c(-c3ccccc3)n2)nc(Nc2ccccc2)n1 | 5.5% | i | x | 0.5% | 12.0 | x | -6.6% |
| CCOc1cc(CN2CCSCC2)ccc1O | x | i | x | 1.8% | 15.0 | x | -2.8% |
| Fc1ccc(C(c2ccc(F)cc2)N2CCN(C/C=C/c3ccccc3)CC2)cc1 | 28.0% | i | 5.0 | -15.1% | 6.0 | 5.0 | -1.5% |
| COc1cc([C@@H]2c3cc4c(cc3[C@H](O)[C@H]3COC(=O)[C@H]23)OCO4)cc(OC)c1OC | 5.0% | i | 0.0 | 68.5%* | 3.0 | 5.0 | -1.5% |
| CCN(CC)CCOc1ccc(Br)cc1 | 7.4% | i | x | x | 8.0 | x | -1.1% |
